Screening data deposited in PubChem by several laboratories.
CSC inhib: cancer stem cell viability inhibitors, primary screen, luminescence; inhibition, % at 7.5 µM; 300,000 tested, 1.1% active; cancer stem cell-like cells viability;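 active = mean at 75% or more and at least half the replicates too; tested in HMLE shEcad cells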;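 also: 0% = median of negative and 100% = median of positive control wells; the first replicate is given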
PABP FP inh: PABP poly(A) RNA binding inhibitors, primary screen, biochemical, fluorescence polarization, uHTS. Polyadenylate-binding protein 1 (Homo sapiens), P11940. inhibition, % at 35 µM. 290,000 tested, 1% active;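 active = 50% or more with normal probe brightness, or confirmed in later tests; about a fifth of its hits are not listed in these tables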;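 also: calls also rest on retests at 20 µM and on dose response follow-up; controls were probe without protein and protein plus probe with vehicle; some compounds called inactive have numbers as strong as hits; many hits fall short of the cut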
Target sequence (P11940 whole entry, looked up): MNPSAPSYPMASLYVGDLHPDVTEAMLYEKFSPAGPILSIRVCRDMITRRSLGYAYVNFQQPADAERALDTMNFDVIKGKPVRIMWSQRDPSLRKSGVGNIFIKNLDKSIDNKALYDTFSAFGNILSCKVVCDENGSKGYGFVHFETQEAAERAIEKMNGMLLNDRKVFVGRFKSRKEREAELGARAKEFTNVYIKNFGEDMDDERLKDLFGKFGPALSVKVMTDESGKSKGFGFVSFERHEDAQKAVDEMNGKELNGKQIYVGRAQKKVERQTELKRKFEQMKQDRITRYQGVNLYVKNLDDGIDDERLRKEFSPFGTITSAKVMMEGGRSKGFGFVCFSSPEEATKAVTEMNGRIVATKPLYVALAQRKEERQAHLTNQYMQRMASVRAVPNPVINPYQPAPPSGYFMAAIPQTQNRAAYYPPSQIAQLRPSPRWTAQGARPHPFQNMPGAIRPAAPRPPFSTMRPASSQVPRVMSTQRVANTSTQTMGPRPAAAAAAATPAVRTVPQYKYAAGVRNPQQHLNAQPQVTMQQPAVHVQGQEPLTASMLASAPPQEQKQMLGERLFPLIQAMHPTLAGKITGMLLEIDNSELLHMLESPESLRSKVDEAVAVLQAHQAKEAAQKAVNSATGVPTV
UUG fidelity: modulators of yeast start codon fidelity, primary screen, whole organism, S. cerevisiae, single point, plate reader; S. cerevisiae UUG-firefly luciferase reporter, luminescence/redox ratio; activity score, % at 18.7 µM; 350,000 tested, 0.13% active;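 active = replicate mean at a twofold rise or more, about +100% in these data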;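 also: firefly luciferase made from a UUG start codon reports start codon fidelity; reporter light over untreated wells divided by growth signal over untreated wells; some hits fall short of that in this replicate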
MT1-MMP act inh: blockers of MT1-MMP proenzyme processing, primary screen, HT1080 RFP-PRO-GFP cells, GFP/RFP fluorescence; GFP/RFP ratio fluorescence, overnight; percent of plate control window, DMSO zero; GFP/RFP ratio change, % at 20 µM; 360,000 tested, 0.061% active; AID 651647, 2012;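 active = GFP/RFP ratio change of at least 30% with cell ATP level not reduced by more than half and red fluorescence within 50% of control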; also: strong numbers were not always called active
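Read-out: GFP/RFP fluorescence ratio; Test system: RFP-PRO-GFP reporter HT1080 cells; Compound dosing: single-point 20 µM compound, 1% DMSO; Times: overnight compound exposure at 37 °C.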
HIV Env fusion: inhibitors of HIV-1 Env-driven cell-cell fusion, primary screen, HeLa-JRFL effector, CEM21 target cells, luciferase; 360,000 tested, 1.1% active; inhibition, % at 12.3 µM; AID 651610, 2012;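 active = mean replicate inhibition score of at least 50 and every replicate individually at or above 50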;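 also: 0% = plate neutral controls and 100% = maraviroc near 300 nM; one replicate is shown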
eIF4H FP inh: human eIF4H binding inhibitors, primary screen, translation initiation inhibitor project, biochemical, uHTS, fluorescence polarization | eIF4H fluorescence polarization binding assay | inhibition, % at 35 µM | 290,000 tested, 0.94% active | AID 2012, 2009;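 active = 50% or more with normal probe brightness, or confirmed in later tests; about a fifth of its hits are not listed in these tables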;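 also: calls also rest on retests at 20 µM and on dose response follow-up; 0% = protein and probe with vehicle and 100% = probe without protein; strong numbers were not always called active; many hits fall short of the cut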
Rce1 inhib: yeast Rce1p protease inhibitors, primary screen, biochemical, fluorescence, cell-free homogeneous | 290,000 tested, 0.27% active | yeast membranes, quenched prenylated peptide cleavage fluorescence | calls only | CAAX prenyl protease 2 (Saccharomyces cerevisiae (strain ATCC 204508 / S288c)), Q03530 | AID 2563, 2010;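 active = fall in fluorescence gain of 50% or more versus controls, with final raw signal at or below 3038400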;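 also: plate controls were neutral control wells for no effect and wells lacking membranes for full effect; tested at 10 µM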
MT1-MMP act inh RFP: further read-out of MT1-MMP act inh, marked with its call; RFP signal change, %; measured here: RFP expression control read;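 0 = vehicle wells; hits needed this value within 50% of zero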
Starred values were filed as active, the others as inactive; i = inactive; · = no result given.

Molecule	CSC inhib	PABP FP inh	UUG fidelity	MT1-MMP act inh	MT1-MMP act inh RFP	HIV Env fusion	eIF4H FP inh	Rce1 inhib
CC(=O)Oc1ccc2c(c1)C(=O)c1ccccc1CO2	2	12	-8	1	2	-204	10	i
CCCCCCCCN1[C@@H](CC(=O)O)c2cc(F)ccc2S1(=O)=O	·	·	8	3	1	-31	·	i
COc1cccc(-c2noc(C3CCCN(C(=O)c4ccc(F)cc4F)C3)n2)c1 (stereo unspecified)	-12	5	-16	1	1	-8	6	i
O=C(CCc1nc2ccccc2c(=O)[nH]1)NCCN1C(=O)S/C(=C\c2ccccc2Cl)C1=O	5	·	-10	5	-8	i	·	i
COc1cc(Br)c(-c2sc(Nc3ccccc3)n[n+]2-c2ccc(F)cc2)cc1OC	7	-15	-6	3	0	-3	-7	i
CCN(CC)c1ccc(NC(=O)c2ccccc2F)cc1	43	9	-23	1	-1	i	-4	i
CCSc1nnc(NC(=O)c2cccc(S(=O)(=O)N(C)c3ccc(C)cc3)c2)s1	42	3	-39	2	0	-12	-9	i
CSc1nnc(Cc2ccc3c(c2)OCO3)o1	-8	-2	1	-2	2	-41	2	i
COc1ccc(Cl)cc1-c1cc(C(=O)Nc2ccc(Br)cc2)[nH]n1	·	·	-12	1	-3	-1	·	·
COc1ccc(CN2CCN(C(=O)c3ccc(S(=O)(=O)N4CCCCCC4)cc3)CC2)cc1	·	·	-8	-2	-28	-2	·	·
CCCCN(C(=O)CC1OC(=O)c2ccccc21)c1c(N)n(CCCC)c(=O)[nH]c1=O (stereo unspecified)	-10	·	22	0	4	4	·	i
O=c1c2ccccc2c(C=NC2CCS(=O)(=O)C2)c(O)n1-c1ccccc1 (stereo unspecified)	-5	-8	-41	1	9	-51	5	i
Cc1cccc(-c2noc(CN(C(=O)c3ccc4c(c3)OCO4)C(C)C)n2)c1	7	8	-11	6	-6	·	-3	i
COC(=O)c1ccc(NC(=O)C2CC3CCC2C3)cc1 (stereo unspecified)	22	·	-5	-3	-8	-34	·	i
COc1ccc(NC(=O)c2ccc3c(c2)C(=O)N(Cc2ccncc2)C3=O)cc1S(N)(=O)=O	-16	·	-15	3	5	3	·	·

Some entries already given, showing only PABP FP inh and Rce1 inhib.
| compound | PABP FP inh | Rce1 inhib |
| --- | --- | --- |
| O=C(CCc1nc2ccccc2c(=O)[nH]1)NCCN1C(=O)S/C(=C\c2ccccc2Cl)C1=O | · | i |
| COc1cc(Br)c(-c2sc(Nc3ccccc3)n[n+]2-c2ccc(F)cc2)cc1OC | -15 | i |
| CCN(CC)c1ccc(NC(=O)c2ccccc2F)cc1 | 9 | i |
| CCSc1nnc(NC(=O)c2cccc(S(=O)(=O)N(C)c3ccc(C)cc3)c2)s1 | 3 | i |
| CSc1nnc(Cc2ccc3c(c2)OCO3)o1 | -2 | i |

Following part.
Molecule	CSC inhib	PABP FP inh	UUG fidelity	MT1-MMP act inh	MT1-MMP act inh RFP	HIV Env fusion	eIF4H FP inh	Rce1 inhib
Cc1ccc(C(=O)OCCN(C)Cc2ccccc2)cc1	-1	-2	-15	0	-5	1	-9	i
CC1CC(=O)NN=C1c1ccc(N)c([N+](=O)[O-])c1 (stereo unspecified)	11	-2	·	3	3	-21	1	i
Cc1cccc(NC(=S)NC(C)CCc2ccccc2)c1 (stereo unspecified)	·	-2	-27	-4	-6	·	-14	i
Cc1ccc(C)c(OC(C)C(=O)Nc2ccc(S(=O)(=O)Nc3nccs3)cc2)c1 (stereo unspecified)	8	10	4	4	3	-8	-9	i
C[C@H](NC(=O)c1ccccc1Cl)C(=O)OCCOc1ccc(Cl)cc1	1	0	4	1	3	17	-5	i
Clc1ccc(-c2nc3ccncc3[nH]2)cc1	-3	7	·	0	0	·	0	i
O=C(NCc1cccc(Cl)c1)c1ccc(-c2cccnc2)c2ccoc12	·	·	2	6	-7	-17	·	·
COC(=O)/C(C#N)=C/c1c(N2CCN(c3ccccc3)CC2)nc2ccccn2c1=O	-2	-3	8	-2	-1	3	17	i
Cc1cc(C)n(-c2ccc(NC(=O)C3CCCCN3C(=O)c3cccs3)cc2)n1 (stereo unspecified)	5	-19	-13	-3	-1	-4	2	i
CC(=O)c1cccc(N(CC(=O)NC2CCCC2)C(=O)c2ccc(C)s2)c1	-2	-12	-19	1	3	7	-9	i
COc1ccccc1NC(=O)CNC(=O)c1ccccc1C	-13	-9	-18	-3	-2	17	8	i
CS(=O)(=O)N(CC(=O)N/N=C/c1ccccn1)c1ccc(Oc2ccccc2)cc1	17	6	-34	-2	4	17	14	i
COc1cccc(CNC(=S)NC2CCCC2)c1	-4	-2	-16	2	-2	2	-3	i
CNC(=O)c1c(NC(=O)c2ccc(N3C(=O)CCC3=O)cc2)sc2c1CCCC2	-21	-4	-8	-1	-1	-2	12	i
CCOP(=O)(OCC)C(Nc1cccc([N+](=O)[O-])c1)c1ccc(OC)cc1 (stereo unspecified)	-7	-7	-3	-1	-1	-3	4	i
CCOC(=O)c1c(C)[nH]c(C(=O)C(C)OC(=O)c2cccc(OCc3c(C)noc3C)c2)c1C (stereo unspecified)	7	-7	-11	-11	-25	·	-7	i
C=C1CCN([C@H](C(=O)Nc2ccc(OC)cc2)C(C)C)S(=O)(=O)c2ccccc21	7	8	0	6	5	7	-5	i
CC1(c2nnc(Cc3ccccc3)o2)CC(c2c(Cl)cccc2Cl)=NO1 (stereo unspecified)	-16	·	-10	0	0	6	·	i
Cc1ccc(-n2c(C)nn(Cc3ccc([N+](=O)[O-])cc3)c2=O)cc1	8	-21	·	-1	-4	-17	-6	i
O=S(=O)(NN=C1CCCCCCC1)c1ccc(Br)cc1	-2	-3	-12	-13	1	·	-8	i
O=C(c1ccc2c(c1)N(Cc1ccccc1)C(=O)CS2)N1CCOCC1	-10	6	-16	1	-5	16	-10	i
CCc1nc(SCC(=O)NCC2CCCO2)c2oc3ccccc3c2n1 (stereo unspecified)	-13	-4	-8	1	-5	·	-5	i
CC1CCN(C(=O)c2cc(-c3ccc(Cl)c(Cl)c3)on2)CC1	11	5	-20	5	0	-39	13	i
N=c1c2c(ncn1CCCO)Oc1c(ccc3ccccc13)C2c1ccccc1 (stereo unspecified)	50	6	·	6	-6	-1	-4	i
Cc1ccc(-n2nnnc2SCc2ccc(C(=O)O)cc2)cc1C	-1	-5	-17	5	1	-11	2	i
Cc1[nH]c(=O)[nH]c(=O)c1/C=N/NC(=O)[C@H](C)NC(=O)OC(C)(C)C	2	5	1	11	8	·	-8	i
C=CCN1C(=O)c2ccc(C(=O)NCCc3ccc(F)cc3)cc2C1=O	-9	-4	24	-9	-2	-422	-5	i
COC(=O)c1c(NC2=NS(=O)(=O)c3ccccc32)sc2c1CCC(C(C)(C)C)C2 (stereo unspecified)	·	·	-24	-2	-4	-33	·	·
CNCc1ccccc1Sc1ccc(O)c(O)c1	85*	17	·	-10	-3	·	36	i
CC(=O)c1cccc(CN2CCN(CC=C(C)C)C(CCO)C2)c1 (stereo unspecified)	·	-12	5	2	3	-8	6	i
Cn1ccnc1SCC(=O)c1cccc(C(F)(F)F)c1	-13	-2	-19	0	5	-7	3	i
CC(c1ccccc1)n1c(-c2ccncc2)n[nH]c1=S (stereo unspecified)	7	9	-15	4	7	·	-7	i
CCn1c(SCC(=O)NNC(=O)Cc2ccccc2)nnc1-c1ccccc1	-16	-7	-4	9	3	·	-11	i
COc1ccc(C(CNC(=O)C(=O)Nc2ccc3c(c2)OCCO3)N2CCN(C)CC2)cc1 (stereo unspecified)	14	·	-20	-3	1	-3	·	i
CCCN1C(=O)S/C(=C/c2ccc(N3CCOCC3)o2)C1=O	20	19	-16	-128	1	3	0	i
CCNc1nc(NCC)n2c(SCC(=O)c3ccccc3F)nnc2n1	·	-1	·	-2	4	-4	-7	i
Cc1ccc(CC(=O)Nc2cc(C)on2)cc1	-1	-7	-6	-1	0	·	-2	i
COc1cccc(OCCCN2CCCCC2)c1	-3	-6	-7	0	1	24	0	i
Cc1[nH]c(C)c(S(=O)(=O)N2CCN(c3ccccc3)CC2)c1C(=O)N1CCCCC1	5	3	1	-4	-2	5	-16	i
CS(=O)(=O)N1CCc2cc(S(=O)(=O)NCCNS(=O)(=O)c3ccc4c(c3)CCN4S(C)(=O)=O)ccc21	6	4	-3	·	·	3	-3	i
CC(=O)c1ccc(N(CC(=O)NC2CCCCC2)C(=O)c2csnn2)cc1	·	0	-13	0	1	-12	-1	i
CC(=O)Nc1cc(-c2ccc(CO)cc2)cn2c(-c3cccc(C(F)(F)F)c3)cnc12	·	·	-10	-1	-3	-21	·	·
CCOC(=O)CCNC(=O)N1CCCC(C(=O)c2ccccc2SC)C1 (stereo unspecified)	-17	6	-15	2	3	-14	-4	i
COc1ccc(OC)c(S(=O)(=O)N2CCN(C(=O)c3ccco3)CC2)c1	-1	10	-13	-1	0	2	1	i
O=C(CCC1CCCN(C(=O)Cc2cccc(F)c2)C1)N1CCN(c2ccccn2)CC1 (stereo unspecified)	-18	-9	14	1	1	16	-1	i
O=S(=O)(NCC1CCCO1)c1cc(Cl)ccc1Br (stereo unspecified)	-6	4	1	0	-3	·	7	i
O=C(NCCCN1CCCCC1)C1CCN(S(=O)(=O)N2CCC3(CC2)OCCO3)CC1	-4	2	-16	-4	6	-8	6	i
CC(=O)c1c(C)nc2cc(Cl)ccc2c1N	-12	-14	·	3	2	·	-13	i
Cc1onc(-c2ccccc2)c1C(=O)Nc1ccc(C(=O)N2CCCCC2)cc1	·	-7	11	4	2	1	1	i
O=C(NCCCN1CCCC1=O)C(=O)NCC1OCCN1S(=O)(=O)c1cc(F)ccc1F (stereo unspecified)	·	·	-4	3	5	10	·	·
COc1ccc(-c2csc(NC(=O)CN3C(=O)CCC3=O)n2)c(OC)c1	-12	-24	-6	4	1	-8	-3	i
CCn1c(SCC(=O)N(Cc2ccccc2)C2CCS(=O)(=O)C2)nc2ccccc2c1=O (stereo unspecified)	-8	10	6	3	4	-162	-4	i
COc1ccc(N(CC(O)Cn2c3ccccc3c3ccccc32)S(=O)(=O)c2ccccc2)cc1 (stereo unspecified)	38	3	-39	0	-7	·	-3	i
Cc1ccc(NC(=O)c2ccc(NCCc3ccccc3)c([N+](=O)[O-])c2)cc1F	5	5	-15	-18	-3	-4	46	i
Cc1cccc(OCC(=O)NCc2nc(-c3ccccc3)no2)c1	-18	2	5	0	3	-3	-4	i
COC(=O)[C@H](Cc1ccccc1)NC(=O)NCc1ccc(C)cc1	-7	2	-2	2	1	-3	-3	i
COc1cccc2c1Oc1ncccc1N(C(=O)CCC(=O)NCc1ccc(C)cc1)C2	-10	-5	-24	2	4	6	-6	i
CC1(C)COC(c2cccc([N+](=O)[O-])c2)OC1	·	·	-20	-1	1	-3	·	·
O=C(CN1CCN(S(=O)(=O)c2ccc(F)cc2)CC1)c1ccc(O)c(O)c1	-6	23	·	6	4	-25	5	i
Cc1cc(C)cc(OCC(=O)O/N=C(\N)c2ccccn2)c1	0	-5	4	5	0	·	8	i
COc1cccc(Nc2ccc(Nc3cccc(OC)c3)nn2)c1	11	3	·	4	0	-42	-14	i
